T cruzi repl: inhibitors of intracellular T. cruzi growth, primary screen, luminescence, NIH3T3 host cells. 300,000 compounds, 1.4% hits. inhibition, % (concentration not given with the values). T. cruzi beta-gal in NIH3T3, 90 h;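 active = mean inhibition across valid replicates above about 55%, limit read from the data; inconclusive = mean below that limit but half or more replicates reach it; inactive = mean below it, under half of replicates reach it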;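 note: signal also drops with host cell toxicity which is not excluded here; 0% = plate median of DMSO wells and 100% = zero luminescence signal; higher percent means less beta-gal luminescence so fewer parasites; stock transfer was 50 nL into about 50 µL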
ALR H2O2 inh: inhibitors of human ALR sulfhydryl oxidase, primary screen, biochemical, H2O2 detection, HRP-luminol luminescence, single point | FAD-linked sulfhydryl oxidase ALR (Homo sapiens), P55789 | purified ALR, DTT oxidation | inhibition, % (concentration not given with the values) | 290,000 compounds, 3.8% hits;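 active = mean and each replicate at 75% or more; inconclusive = only one of the two met; inactive = neither met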;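 note: stock transfer was 7.5 nL into about 7.5 µL; 0% = neutral wells and 100% = wells with inactivated enzyme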
LANA-H2B inh: blockers of LANA interaction with H2A/H2B – biochemical, FP readout, HTS, primary screen. Protein LANA1 (Human herpesvirus 8 type P (isolate GK18)), Q9QR71. cell-free LANA-H2A/H2B peptide, fluorescence polarization. inhibition, % (concentration not given with the values). 320,000 compounds, 0.6% hits; in the data active = inhibition mostly above about 10%, no sharp cut-off; inactive = mostly below about 6.7%;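 note: stock transfer was 7.5 nL into about 10 µL; 0% = median of vehicle wells and 100% = median of positive control wells; one replicate is shown; the record names a cut of 25% in any replicate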
Target sequence (Q9QR71 whole entry, looked up): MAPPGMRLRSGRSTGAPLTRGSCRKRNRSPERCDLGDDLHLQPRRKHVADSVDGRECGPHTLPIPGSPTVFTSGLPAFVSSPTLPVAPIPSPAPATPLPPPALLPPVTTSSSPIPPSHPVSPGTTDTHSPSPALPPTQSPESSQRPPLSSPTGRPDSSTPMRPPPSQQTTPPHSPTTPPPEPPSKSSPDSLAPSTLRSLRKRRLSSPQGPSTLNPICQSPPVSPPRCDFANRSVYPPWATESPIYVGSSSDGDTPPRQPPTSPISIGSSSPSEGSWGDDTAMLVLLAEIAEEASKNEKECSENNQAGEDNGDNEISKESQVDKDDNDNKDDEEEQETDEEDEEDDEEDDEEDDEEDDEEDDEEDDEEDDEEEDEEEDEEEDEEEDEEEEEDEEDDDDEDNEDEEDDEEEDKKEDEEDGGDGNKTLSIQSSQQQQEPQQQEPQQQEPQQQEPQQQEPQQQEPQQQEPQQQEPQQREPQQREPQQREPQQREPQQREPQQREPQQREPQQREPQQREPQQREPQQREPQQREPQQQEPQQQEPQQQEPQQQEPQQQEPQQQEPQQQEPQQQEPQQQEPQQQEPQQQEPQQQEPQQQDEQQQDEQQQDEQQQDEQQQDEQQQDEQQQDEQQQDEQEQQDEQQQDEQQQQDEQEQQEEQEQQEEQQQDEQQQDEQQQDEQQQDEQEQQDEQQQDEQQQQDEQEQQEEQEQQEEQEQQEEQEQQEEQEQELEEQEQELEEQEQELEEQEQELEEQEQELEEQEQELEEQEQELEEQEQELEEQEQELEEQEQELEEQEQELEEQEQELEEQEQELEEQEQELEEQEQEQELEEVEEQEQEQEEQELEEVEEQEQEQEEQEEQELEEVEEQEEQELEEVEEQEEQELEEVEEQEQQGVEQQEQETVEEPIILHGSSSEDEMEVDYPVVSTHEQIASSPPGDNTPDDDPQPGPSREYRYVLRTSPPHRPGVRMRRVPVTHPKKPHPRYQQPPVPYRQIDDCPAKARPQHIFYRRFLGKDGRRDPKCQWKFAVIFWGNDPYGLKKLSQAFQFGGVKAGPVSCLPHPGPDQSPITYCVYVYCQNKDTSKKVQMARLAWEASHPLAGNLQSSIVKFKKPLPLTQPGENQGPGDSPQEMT
Beta2AR agonist: beta2AR agonists driving receptor internalization, primary screen, cell-based, FAP fluorogen, flow cytometry | Am2.2-beta2AR cells; reference of the scale not given here | response, % (no concentration beside the values) | 340,000 compounds, 0.43% hits | AID 504454, 2011 | Beta-2 adrenergic receptor (Homo sapiens), P07550;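 active = response above a set limit, near 3 SD of response in nonfluorescent compounds, cut at about 42% in these data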;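 note: stock transfer was 100 nL into about 11 µL; a reference agonist was the positive control; negative values mostly stem from fluorescent compounds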
Beta apoptosis: inhibitors of cytokine-induced beta cell apoptosis, primary screen, luminescence. INS-1E cytokine-induced death, ATP luminescence, 48 h; percent of positive-control rescue, neutral wells zero. protection from apoptosis, % (no concentration beside the values). 300,000 compounds, 0.8% hits;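 active = all replicates at 75% or more, or half of them and the mean; inconclusive = half reach 75% but not the mean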;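 note: 0% = cytokine-treated negative control wells and 100% = positive control rescue; higher means more ATP so stronger rescue from cytokine killing; wells of about 40 µL received 100 nL stock; the first replicate is given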
rRNA inh HTS: reduced GFP signal of wild-type E. coli, primary screen, bacterial rRNA inhibitor project, GFP/RFP fluorescence, OD600, single point; E. coli WT GFP vs humanized-ribosome RFP mutants, 24 h; active compounds read low; DMSO median 0, no signal -100; GFP signal change (wild-type ribosome), % (test concentration not listed); 350,000 compounds, 1.6% hits; AID 720706, 2013;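 active = significant combined selectivity score with lowered wild-type GFP, culture density cut under 30%, mutant RFP and density less affected; inactive = any of these conditions unmet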; note: one replicate is shown; some compounds called inactive have numbers as strong as hits
Bfl-1 A1 inh: caspase 3/7 activation in MEF A1-2A-BIM cells, primary screen, A1 inhibitor project, cell-based, luminescence, HTS; AID 2462, 2010; 330,000 compounds, 0.066% hits; Caspase-Glo 3/7 luminescence, 3 h; percent of clofoctol response, vehicle zero; caspase activation, % (test concentration not listed);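 active = over half of replicate activation scores above 10%, or exactly half above 10 with the replicate mean above 10; inconclusive = replicate mean below 10 yet half the replicates above 10; inactive = over half of replicates below 10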;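 note: wells of about 30 µL received 50 nL stock; many hits fall short of the cut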
Calb FLC: C. albicans growth inhibition with fluconazole, primary screen, CaCi-2 strain, Alamar Blue fluorescence; growth inhibition, % (test concentration not listed); AID 1979, 2009; 300,000 compounds, 0.57% hits; C. albicans CaCi-2 (fluconazole-resistant clinical isolate) + fluconazole, 48 h;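 active = most replicates above 75%; inconclusive = exactly half above 75%; inactive = most below 75%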;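 note: all wells also contain fluconazole at 8 µg/ml as a sub-toxic cotreatment; 0% = median of DMSO wells and 100% = median of geldanamycin control wells; wells of about 8 µL received 7.5 nL stock; the first replicate is given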
rRNA inh HTS OD600: recorded beside rRNA inh HTS, whose call it bears; OD600 change, %; measured here: OD600 growth;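 optical density of the mix in the first replicate; 0 = DMSO median and -100 = no signal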
rRNA inh HTS RFP: also measured in rRNA inh HTS; calls as there; RFP signal change, %; measured here: RFP humanized mutant strains;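 first replicate; 0 = DMSO median and -100 = no signal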
Starred values were filed as active, the others as inactive; ? = inconclusive; · = no result given.

SMILES	T cruzi repl	ALR H2O2 inh	LANA-H2B inh	Beta2AR agonist	Beta apoptosis	rRNA inh HTS	rRNA inh HTS OD600	rRNA inh HTS RFP	Bfl-1 A1 inh	Calb FLC
Cc1ccc(NC(=O)Cn2cc(S(=O)(=O)c3ccc(C)cc3)c(=O)c3cc(F)ccc32)cc1	48	-16	-2.8	5	6	13	12	2.5	1.2	-13
Nc1ccc(C(=O)N/N=C/c2c[nH]c3ccccc23)cc1	-6	32	0.0	0	-3	-3	1	-2.6	-1.2	0
Cc1ccc(CSCCNC(=O)CN(c2ccccc2)S(C)(=O)=O)cc1	-12	2	-0.6	2	·	-4	-5	2.1	0.4	-7
CC(C)Cn1c2c(c(=O)[nH]c1=O)C(C(F)(F)F)(C(F)(F)F)N=C(CCC1CCCCC1)N2	33	22	2.0	7	39	·	·	·	0.4	-15
Cc1nn(-c2ccc(Cl)c(Cl)c2Cl)c(=O)c2ccccc12	22	4	-1.6	7	8	·	·	·	-0.1	-2
COc1ccc(CC(=O)Nc2cc(C)ccn2)cc1	-8	-3	3.5	-1	-2	·	·	·	-0.9	-26
CC(=O)N1N=C2c3ccccc3CCC2C1c1ccc(F)cc1 (configuration not stated)	3	25	-2.7	-4	0	-44	-68	-6.3	-0.4	-3
CC(=O)CCCC(NS(=O)(=O)CCC(Cl)(Cl)Cl)c1ccccc1 (configuration not stated)	-6	-3	1.8	4	·	0	4	0.0	-0.8	-4
CCC12CN3CCN(CC(C3)/C1=N\NC(=O)c1ccc(C(C)(C)C)cc1)C2	2	-1	-0.2	-4	-2	2	-2	-6.3	0.1	12
CCOC(=O)c1ccc(-c2ccc(/C=N/NC(=O)c3cncc(Br)c3)o2)cc1	-4	-5	1.0	2	5	11	-7	2.0	-1.2	-6
CCC(CC)c1nnc(NC(=O)C2CSC3(C)CCC(=O)N23)s1 (configuration not stated)	5	17	-2.2	1	-7	-4	2	0.7	-0.5	-6
NC(=O)c1cccc([N+](=O)[O-])c1	·	-3	0.2	-6	-6	4	8	-3.0	1.4	·
CC(C)CCNc1nc2ccccc2nc1NS(=O)(=O)c1cccs1	2	2	4.2	-10	6	-2	-5	5.2	-0.4	35
O=C(OCC1OC(n2ncc(=O)[nH]c2=O)C(OC(=O)c2ccccc2)C1OC(=O)c1ccccc1)c1ccccc1 (configuration not stated)	4	-5	8.4	-7	0	-6	9	-6.8	0.6	31
O=C(CN1C(=O)C2C3C=CC(C3)C2C1=O)Nc1ccc2nccnc2c1 (configuration not stated)	3	-22	2.4	-7	-2	5	10	0.6	0.2	-7
O=C(c1ccc(Cl)cc1)c1c[nH]c(C(=O)NNc2cccc(Cl)n2)c1	12	0	2.3	0	8	15	5	-1.9	-0.3	25
Cc1nc(-c2ccccc2)nc2[nH]c(-c3ccccc3)cc(=O)c12	0	·	-0.6	-21	11	·	·	·	0.2	39
Cc1cc(C)nc(NS(=O)(=O)c2ccc(N3C(=O)c4ccccc4C3=O)cc2)n1	-14	2	-1.5	4	-3	7	-1	2.6	-1.0	2
O=C(COn1nnc2ccccc21)NCC1CCCCC1	-5	0	-3.7	-17	5	·	·	·	-2.7	-18
C/C(=N\NC(=O)c1cccc(S(=O)(=O)N2CCCC2)c1)c1cccs1	-10	-3	1.3	2	-4	4	5	0.3	-1.1	7
O=C(N1CCN(c2ccccc2F)CC1)C1(c2cccs2)CCOCC1	-53	3	0.1	0	-1	·	·	·	-1.1	-18
CN(CCOC(=O)c1cccc(F)c1)Cc1ccccc1	-8	-1	11*	3	-1	·	·	·	-0.1	7
CCOC(=O)C(=Cc1ccc(OCc2ccc([N+](=O)[O-])cc2)c(OC)c1)C(=O)OCC	-23	0	0.3	25	6	·	·	·	3.2	-6
COc1cccc(CNC(=O)CCS(=O)(=O)c2cccc3nsnc23)c1	-3	4	1.7	2	1	·	·	·	0.5	17
OCC1(CCOc2ccccc2)CCN(Cc2ccccc2OC(F)F)CC1	-7	·	-1.4	21	-2	1	1	-0.2	0.2	-5

Given bar-delimited: entries from further up.
mol | T cruzi repl | ALR H2O2 inh | LANA-H2B inh | Beta2AR agonist | Beta apoptosis | rRNA inh HTS | rRNA inh HTS OD600 | rRNA inh HTS RFP | Bfl-1 A1 inh | Calb FLC
O=C(OCC1OC(n2ncc(=O)[nH]c2=O)C(OC(=O)c2ccccc2)C1OC(=O)c1ccccc1)c1ccccc1 (configuration not stated) | 4 | -5 | 8.4 | -7 | 0 | -6 | 9 | -6.8 | 0.6 | 31
O=C(CN1C(=O)C2C3C=CC(C3)C2C1=O)Nc1ccc2nccnc2c1 (configuration not stated) | 3 | -22 | 2.4 | -7 | -2 | 5 | 10 | 0.6 | 0.2 | -7

Three of the entries above in order of their number in rRNA inh HTS RFP, low to high:
| structure | rRNA inh HTS RFP |
| --- | --- |
| CC(=O)N1N=C2c3ccccc3CCC2C1c1ccc(F)cc1 (configuration not stated) | -6.3 |
| CC(=O)CCCC(NS(=O)(=O)CCC(Cl)(Cl)Cl)c1ccccc1 (configuration not stated) | 0.0 |
| CCC(CC)c1nnc(NC(=O)C2CSC3(C)CCC(=O)N23)s1 (configuration not stated) | 0.7 |

Further results
SMILES	T cruzi repl	ALR H2O2 inh	LANA-H2B inh	Beta2AR agonist	Beta apoptosis	rRNA inh HTS	rRNA inh HTS OD600	rRNA inh HTS RFP	Bfl-1 A1 inh	Calb FLC
O=C(Oc1ccc(C(=S)N2CCCCC2)cc1)c1ccccc1	17	-11	0.7	0	-13	-29	-28	-1.6	0.1	-4
O=[N+]([O-])c1ccc(Sc2n[nH]c(-c3ccccc3)n2)nc1	-13	-4	-2.8	6	-6	·	·	·	2.0	-2
COc1ccc(-c2cc3ccc(OCc4nn[nH]n4)cc3oc2=O)cc1	3	33	-0.7	-2	-2	·	·	·	-5.5	-5
O=C(c1ccccc1F)N1CCN(c2ccc([N+](=O)[O-])c(NCc3cccnc3)c2)CC1	-2	-10	-8.4	-1	15	-10	-2	-1.6	0.3	-2
Cn1nc(C(F)(F)F)c(/C=N/OC(=O)c2ccccc2Cl)c1SCc1ccccc1Cl	-43	-3	4.9	10	-13	·	·	·	0.1	-9
C/C(=C\c1ccccc1)C(=O)NC1CCSC1=O (configuration not stated)	4	-2	2.6	-7	-2	·	·	·	0.0	2
CC(C)CN(C(=O)CCNC(=O)c1ccc([N+](=O)[O-])cc1)C1CCS(=O)(=O)C1 (configuration not stated)	·	-4	-3.0	-3	-3	0	18	-4.8	0.9	·
CNC(=O)COC(=O)c1ccc(OCC(=O)Nc2ccccc2OC)c(OC)c1	0	2	3.0	-4	-11	3	25	0.8	-0.1	15
CSc1ccc(C(=O)NCC(=O)O)cc1[N+](=O)[O-]	0	13	6.0	-5	0	8	7	-0.6	0.4	8
Cc1cccc(NC(=O)CCCCCN2C(=O)c3ccccc3C2=O)n1	-1	-4	0.3	-5	0	·	·	·	-0.4	4
CCOc1cc(/C=N/NC(=O)CCCC(=O)NC2CCCCC2)ccc1O	1	99*	-0.5	1	2	-8	-8	-0.6	0.6	-1
Cc1ccc(S(=O)(=O)N2CCN=C2SCc2ccccc2)cc1	32	-5	-2.3	2	-4	-10	-6	-3.1	0.9	47
O=C(Nc1c2c(nn1-c1ccc([N+](=O)[O-])cc1)CS(=O)(=O)C2)c1ccccc1F	-7	-1	-1.2	4	·	6	10	-1.5	-1.3	-8
COc1ccc(C(=O)N/N=C/c2ccccc2C(=O)O)cc1OC	-8	-5	0.4	-2	-1	9	8	2.6	-1.0	17
Cc1ccc(NC2SC(=O)N(Cc3cccc(C(=O)O)c3)C2=O)c(C)c1 (configuration not stated)	-19	·	2.0	1	-4	-7	-16	-3.0	0.1	3
COc1cccc(/C(C)=N/NC(=O)Cc2c(C)[nH][nH]c2=O)c1	-14	·	3.1	4	-2	15	15	-3.8	-0.3	-19
CC/C(=N\NC(=O)c1nnn(-c2nonc2N)c1-c1cccs1)c1ccccc1	24	4	0.2	-10	2	9	7	4.1	?	-6
COc1cccc(-c2nnn(CC(=O)Nc3cc(OC)c(NC(=O)c4ccco4)cc3OC)n2)c1	-3	-6	5.7	29	-2	·	·	·	-0.6	0
CCOc1ccc(OCCCC(=O)ON=C(N)c2ccccc2Cl)cc1	·	-2	6.7	-2	-3	4	8	-0.8	-1.3	·
COc1ccc(C2c3c(-c4ccccc4)n[nH]c3C(=O)N2c2ccc(C(=O)O)cc2)cc1 (configuration not stated)	-1	6	-6.3	-12	-3	-10	-6	-6.6	0.0	1
COc1cc(CNS(=O)(=O)c2ccc3c(c2)CC(C)N3C(=O)C2CCC2)cc(OC)c1OC (configuration not stated)	20	-4	0.6	-4	15	-15	-19	-4.8	1.3	3
COc1ccc2c(c1)[C@H]1[C@H](CO2)[C@H](c2ccccc2)[C@]2(C)C(=O)Nc3ccc(Br)cc3C(=O)N12	·	5	-2.4	9	-7	4	10	2.4	2.2	·
Cc1[nH]c2ccc(C(=O)NCCN3CCCCCC3)cc2c1C	-1	4	-1.3	-1	0	9	16	0.3	1.1	-5
CCCC(O)(CCN1CCOCC1)c1ccc(Cl)cc1 (configuration not stated)	10	-1	-6.9	-6	2	1	6	-14	0.8	-2
CN(C)S(=O)(=O)N1CCN(S(=O)(=O)c2ccccc2)CC1	-1	-4	-0.9	-3	1	·	·	·	·	-10
Nc1nnc(SCC(=O)NCCNC(=O)CSc2nnc(N)s2)s1	-12	-2	-1.7	4	3	-6	-10	1.9	0.3	·
CC[C@@]12C(=O)N(c3cccc(Br)c3)C(=O)N1[C@H](c1ccc(Cl)cc1)[C@@H]1C(=O)N(C3CCCCC3)C(=O)[C@@H]12	24	-5	-1.4	6	·	16	12	-3.4	0.2	-6
Cc1cc(N2C(=O)CCC2=O)n(-c2ccccc2)n1	-5	·	-3.0	3	0	·	·	·	3.3	-4

As entered above.
LANA-H2B inh, Cc1ccc(NC2SC(=O)N(Cc3cccc(C(=O)O)c3)C2=O)c(C)c1 (configuration not stated) is entered as 2.0
Calb FLC, CC(=O)CCCC(NS(=O)(=O)CCC(Cl)(Cl)Cl)c1ccccc1 (configuration not stated) is entered as -4

A portion of the library (hit frequency here may not be typical).
